Vaccinia mCherry: qHTS for Stage-Specific Inhibitors of Vaccinia Orthopoxvirus: mCherry Reporter Primary qHTS; AID 720579, 2013; actives 0.63% (n = 310,000); Potency, µM (highest dose often 36.5 µM), for the others: at the top dose activity change, negative = inhibition, actives largely listed as inhibitors; Vaccinia virus mCherry reporter infection, fluorescence; about a quarter of the inactives have no number; active = well fitted inhibition curve with a large enough effect; inconclusive = small, poorly fitted or top-dose-only effect; inactive = no such curve, though single readings can be large or run the other way; tested in A549 cells; also: nearly all actives have a fitted effect of over 35% in size; inactives centre near -10
Vaccinia Venus: qHTS for Stage-Specific Inhibitors of Vaccinia Orthopoxvirus: Venus Reporter Primary qHTS; Vaccinia virus Venus reporter expression, fluorescence; Potency, µM (titrated, usually from 36.5 µM), for the others: at the top dose activity change, negative = inhibition, most hits filed as inhibitors; actives 0.46% (n = 330,000); active means well fitted inhibition curve with a large enough effect; inconclusive means small, poorly fitted or top-dose-only effect; inactive means no such curve, though single readings can be large or run the other way; tested in A549 cells; also: nearly all actives have a fitted effect of over 30% in size; inactives centre near -10
Numbers without * were called inactive; i = inactive; u = inconclusive; x = no result given; & = joins results of further samples; [ ] = remark or other dose. % is scaled to controls: 0 for no effect and ±100 for the full control effect; potency is read from the fitted curve at half-maximal effect.

The opening 18 compounds, ahead of the listing:
nr	molecule	Vaccinia mCherry	Vaccinia Venus
1	CCN1C[C@@H]2[C@@H]3C(=O)N(C)C(=O)[C@@H]3[C@](C)(C(=O)OC)N2C1=NC	-5%	8%
2	Cc1cccc(C(=O)N2CCc3cc(CNC(=O)CCc4ccccc4)ccc32)c1	i	-12%
3	Cc1ccc(/C(N)=N/OC(=O)N2c3ccccc3Sc3ccccc32)cc1	14%	0%
4	O=C(COC(=O)c1cc(F)cc(F)c1)Nc1cccnc1Cl	-13%	-12%
5	COc1cc2nc(SCc3ccc(F)cc3)n3nc(CCn4c(C)nc5ccccc54)nc3c2cc1OC	-12%	3%
6	NCCC1CCCC(CCN)N1 (stereo not given)	-6%	-1%
7	Cc1cccc(NC(=S)NC(=O)Cc2ccccc2)c1C	-20%	-22%
8	O=C(CO/N=C/c1cccc([N+](=O)[O-])c1)Nc1ccc2ccccc2c1	-13%	-9%
9	CCSc1ccccc1C(=O)Nc1ccc(S(=O)(=O)NC(C)=O)cc1	i	-6%
10	COc1ccc(OC)c(CN2C(=O)c3ccccc3C2c2nnnn2C2CCCC2)c1 (stereo not given)	-11%	-8%
11	O=S(=O)(NCc1ccccc1)c1ccc(S(=O)(=O)N2CCCC2)cc1	-15%	-19%
12	COc1cc(Cn2c3ccc(NC(=O)CC(C)(C)C)cc3c(=O)n2C)ccc1F	0%	-1%
13	C[C@@H]1CC=C[C@H]2[C@H]1C(=O)N(Cc1ccccc1)[C@H]2c1ccc(/C=C/c2ccccc2)cc1F	i	0%
14	CCCC(=O)NCCCc1nc2ccccc2n1C	5%	0%
15	CC(C)(C)NC(=O)c1cccc2c1C(=O)c1ccccc1-2	i	-13%
16	O=c1ccn([C@@H]2O[C@H](CNCC3=Cc4cc(O)ccc4OC3)[C@@H](O)[C@H]2O)c(=O)[nH]1	0%	-4%
17	CC(=O)Nc1ncc(Sc2ccc([N+](=O)[O-])cc2)s1	-13%	-7%
18	CCN1CCN(c2cc3c(cc2F)c(=O)c(C(=O)O)cn3C2CC2)CC1	-19%	-8%&-6%

This part in full (from the top)
nr	molecule	Vaccinia mCherry	Vaccinia Venus
1	CCN1C[C@@H]2[C@@H]3C(=O)N(C)C(=O)[C@@H]3[C@](C)(C(=O)OC)N2C1=NC	-5%	8%
2	Cc1cccc(C(=O)N2CCc3cc(CNC(=O)CCc4ccccc4)ccc32)c1	i	-12%
3	Cc1ccc(/C(N)=N/OC(=O)N2c3ccccc3Sc3ccccc32)cc1	14%	0%
4	O=C(COC(=O)c1cc(F)cc(F)c1)Nc1cccnc1Cl	-13%	-12%
5	COc1cc2nc(SCc3ccc(F)cc3)n3nc(CCn4c(C)nc5ccccc54)nc3c2cc1OC	-12%	3%
6	NCCC1CCCC(CCN)N1 (stereo not given)	-6%	-1%
7	Cc1cccc(NC(=S)NC(=O)Cc2ccccc2)c1C	-20%	-22%
8	O=C(CO/N=C/c1cccc([N+](=O)[O-])c1)Nc1ccc2ccccc2c1	-13%	-9%
9	CCSc1ccccc1C(=O)Nc1ccc(S(=O)(=O)NC(C)=O)cc1	i	-6%
10	COc1ccc(OC)c(CN2C(=O)c3ccccc3C2c2nnnn2C2CCCC2)c1 (stereo not given)	-11%	-8%
11	O=S(=O)(NCc1ccccc1)c1ccc(S(=O)(=O)N2CCCC2)cc1	-15%	-19%
12	COc1cc(Cn2c3ccc(NC(=O)CC(C)(C)C)cc3c(=O)n2C)ccc1F	0%	-1%
13	C[C@@H]1CC=C[C@H]2[C@H]1C(=O)N(Cc1ccccc1)[C@H]2c1ccc(/C=C/c2ccccc2)cc1F	i	0%
14	CCCC(=O)NCCCc1nc2ccccc2n1C	5%	0%
15	CC(C)(C)NC(=O)c1cccc2c1C(=O)c1ccccc1-2	i	-13%
16	O=c1ccn([C@@H]2O[C@H](CNCC3=Cc4cc(O)ccc4OC3)[C@@H](O)[C@H]2O)c(=O)[nH]1	0%	-4%
17	CC(=O)Nc1ncc(Sc2ccc([N+](=O)[O-])cc2)s1	-13%	-7%
18	CCN1CCN(c2cc3c(cc2F)c(=O)c(C(=O)O)cn3C2CC2)CC1	-19%	-8%&-6%
19	C=CCN(c1ccccc1)S(=O)(=O)c1cccc(C(=O)Oc2ccc3c(C)cc(=O)oc3c2)c1	-12%	-1%
20	O=C(NCCCCc1ccccc1)c1cccc(NC(=O)C2CC2)c1	i	-19%
21	CCOc1ccc(NC(=O)Nc2ccc3c(c2)CCC3)cc1	-13%	-12%
22	CC12CCC3C(C1)C(C(=O)O2)C(=O)OC3(C)C (stereo not given)	i	-7%
23	O=C1c2ccccc2C(=O)N1CC(O)COc1ccc(Br)cc1 (stereo not given)	i	-14%
24	Cc1cc(NC(=O)CSc2nnc(-c3ccco3)o2)no1	x	-8%
25	CN(Cc1ccccc1)C(=O)c1ccc(NC(=O)Cc2ccc(NC(=O)C3CCN(C(=O)C4CCCC4)CC3)cc2)cc1	u	-14%
26	COc1ccc(OC)c(S(=O)(=O)n2c([N+](=O)[O-])cnc2C)c1	i	-9%
27	CC(C)(C)NCc1cc(Br)ccc1OCc1cccs1	-27%	-20%
28	COc1ccc(C2=CC(c3ccc(F)cc3)n3nnnc3N2)cc1 (stereo not given)	-11%	-9%
29	CCOc1ccc(CCNC(=O)Cn2c(-c3cccs3)cc3ccccc32)cc1OCC	-2%	-14%
30	COc1cc(CN(CC(C)C)S(=O)(=O)c2ccccc2Br)cc(OC)c1	-6%	-19%
31	O=c1[nH]c2ccc(NS(=O)(=O)c3ccc(Cl)cc3)cc2[nH]1	-2%	-7%
32	CCCCN1CNC(=S)N(Cc2ccccc2)C1	-2%	-19%
33	Cc1ccc(C(=O)NCCc2ccncc2)cc1	u	-20%
34	CCOC(=O)c1nn(-c2ccc(Cl)cc2)c2nc(-c3ccc(C)cc3)c(C#N)c(=O)n12	-2%	-21%
35	C=CCN1C(=O)NC(=O)/C(=C/c2ccc(OC)c(COc3ccc(NC(C)=O)cc3)c2)C1=O	i	-10%
36	CNC(=O)Oc1cccc(-c2cn3cc(Cl)ccc3n2)c1	-21%	-16%
37	O=C(Nc1ccccc1)N1CCc2scc[n+]2-c2ccccc21	-3%	-1%
38	CCOc1ccc(NC(=O)CCCn2c(=S)[nH]c3ccsc3c2=O)cc1	-5%	-5%
39	CC(=O)c1cccc(NC(=S)N2c3ccccc3CC2C)c1 (stereo not given)	-6%	-3%
40	CCn1c(=S)sc2c(=O)n(CC(=O)Nc3ccc(OC)cc3)c(C)nc21	6%[7.34 µM]	0%[7.34 µM]

Reformatted: 2 of the compounds above
Values in the order: Vaccinia mCherry, Vaccinia Venus
(18) CCN1CCN(c2cc3c(cc2F)c(=O)c(C(=O)O)cn3C2CC2)CC1
 : -19%, -8%&-6%
(19) C=CCN(c1ccccc1)S(=O)(=O)c1cccc(C(=O)Oc2ccc3c(C)cc(=O)oc3c2)c1
 : -12%, -1%

Following part:
nr	molecule	Vaccinia mCherry	Vaccinia Venus
41	Cc1ccccc1C(=O)c1ccccc1C(=O)c1ccccc1	i	-3%
42	O=C(Cn1cnc2sc(-c3ccccc3)cc2c1=O)NCCc1ccccc1	-10%	-13%
43	CCOC(=O)N1CCN(CC(=O)c2ccc3c(c2)CCN3C(C)=O)CC1	i	-5%
44	CCOc1ccccc1N1CCN(c2nc3ccccc3nc2C(C#N)C(=O)OC(C)C)CC1 (stereo not given)	-9%[7.34 µM]	-3%[7.34 µM]
45	CCOCCCNC(=O)C(Cc1ccccc1)NS(=O)(=O)c1ccc2c(c1)c(=O)n(C)c(=O)n2C (stereo not given)	-5%&-1%	-18%&2%
46	O=C(CN1CCN(S(=O)(=O)c2ccc(Cl)cc2)CC1)Nc1ccc2c(c1)CCC2	-6%	-21%
47	Cc1c(-c2nc(-c3ccc4c(c3)OCO4)no2)nnn1-c1cccc(C(F)(F)F)c1	u	u
48	C=CCn1c(SCC(=O)Nc2cccnc2Cl)nnc1-c1ccccc1F	-23%	-7%
49	COc1ccc2c(c1)c1c(n2C)[C@@H]2CC=C(CO)[C@@H](C1)N2C	-17%	-5%
50	CCOC(=O)c1ccc(NC(=O)CN2CCN(c3ccccc3)CC2)cc1	i	-22%
51	CC(=O)NCCc1nc2cc(NC(=O)COc3cccc(C)c3)ccc2n1C	-17%	-1%
52	CCOc1ccc(-n2c(=O)c3c(C)c(C)sc3n(CC(=O)c3ccccc3)c2=O)cc1	-21%	-7%
53	CC(C)(C)c1cc(P(=O)(c2ccccc2)c2ccccc2)ccc1O	-13%	-22%
54	Cc1cccc(C)c1NC(=O)CNC(=O)C(NC(=O)c1ccc(C(C)(C)C)cc1)C(C)C (stereo not given)	-18%	-23%
55	Cc1oc(-c2ccccc2F)nc1Cn1c(SCc2ccccc2F)nc2ccncc21	-7%	2%
56	CCC1Oc2ccccc2N(CC(=O)NCCCN2CCN(Cc3ccccc3)CC2)C1=O (stereo not given)	-22%	-16%
57	CC(=O)c1cccc(NC(=O)C23CC4CC(C2)CC(n2cncn2)(C4)C3)c1	-8%	-6%
58	COCCNC(=O)C(OC(=O)CC1Sc2ccccc2NC1=O)c1ccccc1 (stereo not given)	x	-27%
59	CN(C)S(=O)(=O)c1ccc(C(=O)Nc2nnc(-c3ccco3)o2)cc1	-12%	-13%
60	CCc1cc(=O)oc2cc(OCC(=O)NCC3CCC(C(=O)O)CC3)ccc12 (stereo not given)	5%	11%
61	CCOc1cc(C(=O)Nc2cc(=O)n(C)c(=O)n2C)cc(OCC)c1OCC	x	-19%
62	CCN(CC)CCOCCn1c(C)ccc1C	i	3%
63	CCS(=O)(=O)N1CCN(c2ccc(C(=O)N3CCOCC3)cc2[N+](=O)[O-])CC1	-1%[7.34 µM]	0%[7.34 µM]
64	COc1ccccc1NC(=O)CCNS(=O)(=O)c1ccc2c(c1)CCN2C(=O)C1CC1	-7%	1%
65	CC1CC(NS(=O)(=O)c2cccs2)CC(C)(C)C1 (stereo not given)	-1%	-7%
66	CCC(Sc1ccc2nnc(-c3ccc(OC)c(OC)c3)n2n1)C(=O)O (stereo not given)	-9%	-4%
67	CCC(c1c(C)[nH]oc1=O)c1c(C)[nH]oc1=O	x	18%
68	CC1(C)Cc2c(cnn2-c2ccc(F)cc2)C(NC(=O)CCn2cncn2)C1 (stereo not given)	i	-10%
69	O=C(CNC(=O)c1ccc(Br)cc1)NCc1cccnc1	-25%	-4%
70	COc1ccccc1N1CCN(c2ncnc3onc(-c4cccc(Cl)c4)c23)CC1	8%	5%
71	COc1ccc(OC)c(S(=O)(=O)Nc2ccccc2F)c1	u	-4%
72	COc1ccc2c(c1)CSC(c1ccccc1)C2=O (stereo not given)	-5%	-16%
73	CC1(C)[C@@H](O)CC[C@]2(C)C3C(O)C=C4[C@H]5C[C@@](C)(CO)CC[C@]5(C)CC[C@]4(C)[C@]3(C)CC[C@@H]12 (stereo not given in full)	i	-13%
74	CCCCN1CC(N(C)CCN(C)C)CS1(=O)=O (stereo not given)	5%	-13%
75	CC(C)C[C@H]1CN(CCCC[C@H]2CNC(=O)C(=O)N2Cc2ccccc2)C(=O)C(=O)N1Cc1ccccc1	4%	8%
76	Cc1ccc(OCCC(=O)OCC(=O)Nc2ccccc2)cc1	i	-3%
77	COC(=O)c1cc(NC(=O)CN2CCN(C(C)=O)CC2)cc(C(=O)OC)c1	i	-10%
78	Cc1nc2c(-c3ccc(F)cc3)c(C)nn2c(C)c1CCC(=O)NCc1ccc(Cl)cc1	u	-22%
79	Cc1ccc(-n2c(SCc3nc4ccccc4[nH]3)nnc2-c2ccncc2)cc1	i	-12%
80	CC(C)(C)NC(=S)NCc1ccc2c(c1)OCO2	i	-22%
81	COc1ccc(Cl)cc1C(=O)OCC(=O)N(CC(C)C)c1c(N)n(Cc2ccccc2)c(=O)[nH]c1=O	i	-14%
82	O=C(COC(=O)c1c2c(nc3ccccc13)/C(=C\c1cccs1)CCC2)Nc1ccccc1Cl	-21%	u
83	COC(=O)c1oc2c(c1C)C(=O)CC(C)(C)C2	-4%	4%
84	Cc1c(NS(=O)(=O)c2ccc3[nH]c(=O)[nH]c3c2)c(=O)n(-c2ccccc2)n1C	u	-4%
85	Cc1ccc(-c2nnn(CC(=O)N(CC(=O)NC3CCCCC3)c3ccc(F)c(Cl)c3)n2)o1	-10%[1.46 µM]	-28%
86	Cc1cnccc1CN(C)Cc1cn(C)nc1-c1ccc(Oc2ccccc2)cc1	-28%	-19%
87	CN(C)CCC(c1ccc(Br)cc1)c1ccccn1 (stereo not given)	-12%&-4%&-18%	-12%&-17%&-16%&-9%
88	COc1cccc(-c2nc(CS(=O)(=O)CC(=O)NCCCN3CCN(C)CC3)c(C)o2)c1	-17%	-8%
89	Cc1nnc(SCc2ccc(F)cc2)n1NC/C=C/c1ccccc1	u	-28%
90	Cc1ccc(C)c(N2CCN(C(=O)Cn3ncc4c(=O)oc5ccc(C)cc5c43)CC2)c1	9%	2%
91	CCC(=O)N1CCc2cc(S(=O)(=O)NC(CC(C)C)C(=O)Nc3ccc(CC)cc3)ccc21 (stereo not given)	-18%	-15%

Compound activity: PubChem BioAssay, National Center for Advancing Translational Sciences (NCATS)
